NPYLR7 agonist: mosquito NPYLR7 agonism | HEK293T NPYLR7/Galpha15, GCaMP6s calcium fluorescence | 270,000 compounds, 0.15% hits | activation, % at 10 µM; in the data active means activation above about 40%;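 further: 0% = vehicle and 100% = reference agonist at the receptor; some compounds past the cut are filed as inactive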
NPYLR7 agonist max-min: also measured in NPYLR7 agonist; calls as there; activation, %; measured here: Max-Min RFU normalised activation; some inactives read as strong as hits;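 span of the calcium signal over five minutes; 0% = vehicle and 100% = native peptide agonist; compound fluorescence can raise it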
Numbers without * were called inactive; & = joins results of further samples.

SMILES	NPYLR7 agonist	NPYLR7 agonist max-min
COc1ccc(C(=O)NC(=O)COc2ccc(C#N)cc2Cl)cc1	-0.5	0.6
Cc1cc(Br)cc(C)c1NC(=O)C1C2C=CC(C3CC23)C1C(=O)O (configuration not stated)	-7.7	-10.0
COc1ccc(-c2nc(OCC(C)C)nn2-c2ccc(NC(=O)c3ccc([N+](=O)[O-])cc3)cc2)cc1	14.4	19.6
CCOc1ccc(CN2CCCn3cccc3C2c2c(F)cccc2F)cc1 (configuration not stated)	-1.0	5.3
CC1CN(c2cc(Oc3ccccc3Cl)ncn2)CCN1C(=O)c1ccc(Cl)cc1Cl (configuration not stated)	8.4	12.0
COC(=O)C1CCCCN1S(=O)(=O)c1cc(C)ccc1F (configuration not stated)	2.2	-0.5
NCC1Cc2c(ccc3cc(-c4ccncc4)ccc23)O1 (configuration not stated)	0.8	-5.9
CCOc1ccc(CN(Cc2cccc(C(F)(F)F)c2)Cc2nc(C(=O)O)co2)cc1	11.0	13.6
N#CCOc1ccc(NC(=O)NC(c2ccccc2)C(F)(F)F)cc1 (configuration not stated)	4.0	1.6
NC1=NC(=O)/C(=C\c2cc(Br)cc(Cl)c2O)S1	39.2	37.5
CCOC(=O)C1=C(C)N(c2ccc3c(c2)OCCO3)C(=S)NC1c1ccc(OC)cc1OC (configuration not stated)	1.5	-2.2
O=C(CCN1CCCCO1)N1CCOC(Cc2cccc(F)c2)C1 (configuration not stated)	8.1	4.1

SMILES	NPYLR7 agonist	NPYLR7 agonist max-min
Cc1cccc(NC(=O)N2CCN(c3nc(-c4cccc(C(F)(F)F)c4)nc(C)c3Cc3ccccc3)CC2)c1C	-5.0	4.1
Cc1cc(C)c(NC(=O)CNC(=O)C2COc3ccccc3O2)c(C)c1 (configuration not stated)	15.4	5.2
CC1=C(C(=O)OC(C)(C)C)C(C)C(C(=O)OC(C)(C)C)=C(C)N1	-4.4	-5.6
CN(Cc1cccc(Cl)c1)C(=O)NCC1COc2ccccc2O1 (configuration not stated)	7.2	3.0
CC(=O)c1cc(C(=O)N2CCc3onc(-c4ccc(F)c(F)c4)c3C2)cs1	3.5	0.3
CN(CC1CCCCO1)C(=O)c1cccc(CC2CCNCC2)c1 (configuration not stated)	4.6	-5.9
COC(=O)c1ccc(/C=C/c2cc(C(=O)O)c3ccc(F)cc3n2)o1	-2.3	-2.9
CSc1ncc(Cl)c(C(=O)N2CCN(c3ccccc3)CC2)n1	-7.1	-8.6
O=C(NC(C(=O)N1CCCCC1)C1CCN(C(=O)CCc2ccccc2)CC1)c1ccccc1Cl (configuration not stated)	2.2	5.1
COCCN(Cc1ccc(OC)c(OC)c1)CC(O)COc1ccccc1 (configuration not stated)	22.2	26.5
Cc1cccc(C(=O)NCCn2nc(-c3ccco3)ccc2=O)c1	0.3	-2.1
CN(C)CCNC(=O)C(=Cc1ccc(-c2ccc(Cl)cc2)o1)NC(=O)c1ccccc1	21.3	12.5

SMILES	NPYLR7 agonist	NPYLR7 agonist max-min
COc1cccc(C2C3C(=Nc4ncnn42)c2ccccc2OC3c2ccc(OC)c(OC)c2)c1 (configuration not stated)	4.4	0.3
COC(=O)c1cc(CNC(=O)C2COc3ccccc3C2)ccc1OC (configuration not stated)	1.5	0.6
CC(C)[C@H](NC(=O)Cc1cccc2ccccc12)C(=O)OCC(=O)c1ccc[nH]1	3.1	10.9
CCn1cc(-c2cccc(CN3CCOCC3)c2)c(C)n1	5.7	1.4
CCCN1CCC(NN2CCOCC2)CC1	-10.8	-17.2
COc1ccc(N2CC(C(=O)Nc3c4c(nn3-c3ccccc3)CS(=O)(=O)C4)CC2=O)cc1 (configuration not stated)	-4.8	-7.5
CCCOc1ccc(C2C(=C(O)c3ccc4c(c3)CC(C)O4)C(=O)C(=O)N2Cc2ccco2)cc1 (configuration not stated)	11.5	11.2
CC(=O)Oc1ccc(Cn2c(C)c(C(=O)NCC(C)C)sc2=O)cc1	11.5	6.3
Cc1cccc2sc(N(CCCN3CCOCC3)C(=O)c3nc4ccccc4s3)nc12	-0.3	-4.1
Cc1nccn1-c1cc(NCCNS(=O)(=O)c2ccccc2Cl)ncn1	-13.4	-21.8
C1CCC2(C1)OCC1(CO2)COC2(CCCC2)OC1	-1.0	-0.5
Cc1cc(C)c2nc(SCc3ccccc3F)[nH]c2c1	16.1	13.2

SMILES	NPYLR7 agonist	NPYLR7 agonist max-min
Cc1cccc(CNC(=O)C2CC23CCN(C(=O)CCC2CCCC2)CC3)n1 (configuration not stated)	19.8	3.3
CCCCOc1ccccc1C1NC(=O)NC(C)=C1C(=O)OCC (configuration not stated)	-2.3	-6.9
Cc1ccc(Cn2nc3n(Cc4ccccc4)c(=O)c4ccc(C(=O)NC(C)C)cc4n3c2=O)cc1	2.0	-3.9
CN1CCN(C(=O)c2ccnc(-c3cccc4cnccc34)c2)CC1	7.1	5.8
Cc1cc(C)c(NC(=O)CN(C)C2CC(=O)N(c3ccccc3C)C2=O)c(C)c1 (configuration not stated)	8.1	4.4
C#CCN(Cc1ccc(F)cc1)C(=O)CC(=O)Nc1cccc(C)c1C	14.1	-2.9
CCOc1cc(C(=O)NCCc2csc3nc(-c4cccs4)nn23)cc(OCC)c1OCC	-4.8	-4.7
Cc1nc(-c2ccc(C(F)(F)F)cc2)nc(N2CCN(S(=O)(=O)c3ccc4ccccc4c3)CC2)c1C(C)C	-5.2	1.6
COCC(=O)N1CC(=O)N2C3CCC(O)(CC3)C2C1 (configuration not stated)	25.7	21.8
COc1ccc(OCCn2c(C3CCCO3)nc3ccccc32)cc1 (configuration not stated)	-1.8	-1.2
CS(=O)(=O)c1ccccc1C(=O)N(Cc1ccccn1)c1nc2ccc(Cl)cc2s1	0.7	-1.9
COc1ccc(C(=O)N2CCN(c3ncnc4c3nnn4Cc3ccccc3)CC2)c(OC)c1	-13.6	-20.4

Results follow in this order: NPYLR7 agonist | NPYLR7 agonist max-min
- Cc1cc(C(F)(F)F)nc2snc(Br)c12
→ -0.8 | -2.4
- CCOc1ccc(NC(=O)N2CCc3cc(OC)c(OC)cc3C2CNC(=O)c2ccc(OC)cc2)cc1 (configuration not stated)
→ 19.2 | 19.2
- COc1ccc(CN(CN2C(=O)C(=O)c3cc(F)ccc32)C2CC2)cc1
→ 0.9 | -0.4
- Cc1ccc(C2(O)CCN(C(=O)c3ccc(Cn4cccn4)o3)CC2)nc1
→ -1.2 | -2.9
- CC1Sc2ccc(C(=O)N(C)C3CCc4ccccc43)cc2NC1=O (configuration not stated)
→ 3.0&10.9 | 2.3&9.1
- CCOC(=O)CCNC(=O)C1=CN2CCN(C)C(=O)N=C2O1
→ 4.4 | 8.0
- O=C(NC(=S)NCC1CCCO1)c1cccs1 (configuration not stated)
→ 1.3 | 0.4
- CCCCCCc1ccc(C(=O)N(CC(=O)N(CCc2c[nH]c3ccccc23)Cc2ccccc2OC)C(C)C)cc1
→ 14.2 | 16.6
- O=C(NC1CC1)C1CC(=O)N(C2CCCCC2)C1 (configuration not stated)
→ 13.7 | 13.0
- Cc1ccc(S(=O)(=O)NC(C)C(c2cccs2)N2CCN(c3ccccc3)CC2)cc1 (configuration not stated)
→ -1.2 | -0.6
- Cc1nn(-c2ccccc2)nc1C(=O)Nc1ccc2c(c1)OCCO2
→ 2.4 | 5.5
- COc1cc(C2Nc3ccccc3N=C3CC(C)(C)CC(=O)C32)cc(OC)c1OC (configuration not stated)
→ -2.1 | -8.9
- C#CCOCC(O)CN(Cc1ccc(C)o1)CC1CC1 (configuration not stated)
→ 18.0 | 21.5
- O=C(Nc1ccc2c(c1)C(=O)Nc1ccccc1O2)c1ccccc1
→ 5.8 | 2.0
- O=C(Nc1ccc(NS(=O)(=O)c2ccc(F)cc2)cc1)c1ccco1
→ 5.5 | 2.8

Six compounds from above, sorted by molecular weight, high to low.
Results follow in this order: NPYLR7 agonist | NPYLR7 agonist max-min
- CCCCCCc1ccc(C(=O)N(CC(=O)N(CCc2c[nH]c3ccccc23)Cc2ccccc2OC)C(C)C)cc1
→ 14.2 | 16.6
- CCOc1ccc(NC(=O)N2CCc3cc(OC)c(OC)cc3C2CNC(=O)c2ccc(OC)cc2)cc1 (configuration not stated)
→ 19.2 | 19.2
- COc1cc(C2Nc3ccccc3N=C3CC(C)(C)CC(=O)C32)cc(OC)c1OC (configuration not stated)
→ -2.1 | -8.9
- O=C(Nc1ccc(NS(=O)(=O)c2ccc(F)cc2)cc1)c1ccco1
→ 5.5 | 2.8
- COc1ccc(CN(CN2C(=O)C(=O)c3cc(F)ccc32)C2CC2)cc1
→ 0.9 | -0.4
- C#CCOCC(O)CN(Cc1ccc(C)o1)CC1CC1 (configuration not stated)
→ 18.0 | 21.5

(list continues)
Results follow in this order: NPYLR7 agonist | NPYLR7 agonist max-min
- O=C(Oc1c(CN2CCOCC2)cc(Cl)c2cccnc12)c1cccc([N+](=O)[O-])c1
→ -3.3 | -5.7
- CC(C(=O)Nc1ncccn1)N1CCCC(C)(c2ccccc2)C1 (configuration not stated)
→ -6.7 | -4.9
- Cc1oc(-c2cccs2)nc1CN1CCOC(Cc2ccccc2)C1 (configuration not stated)
→ 2.5 | -0.1
- O=C(c1cc2n(n1)CCN(Cc1c(Cl)cccc1Cl)C2=O)N1CCC2(CC1)OCCO2
→ 15.3 | 18.0
- COCCN(Cc1ccc(OS(=O)(=O)c2ccc(OC)cc2)cc1)C(=O)Nc1ccccc1OC
→ 23.8 | 16.5
- CCc1nnc(NC(=O)CSc2nc(O)c(-c3ccccc3)c(=O)[nH]2)s1
→ -0.3 | 5.8
- COc1ccc(CN2CC(OCc3cccnc3)CN(C(=O)c3snnc3C)CC2=O)cc1 (configuration not stated)
→ 20.2 | 5.2
- Cc1nn(CC(=O)NCCCN2CCOCC2)c(C)c1[N+](=O)[O-]
→ -2.8 | -10.7
- Oc1ccccc1Nc1nc(N2CCOCC2)c2ccccc2n1
→ 2.8 | 4.7
- CC(C)N(C)C(=O)c1cc(N2CCSCC2)nc2ccccc12
→ 8.0 | 1.2
- COc1ccc(C2CCCN2c2ccc(S(N)(=O)=O)cn2)cc1 (configuration not stated)
→ 4.0 | -0.6
- C=CCn1c2ccccc2c2nnc(SCC(=O)Nc3ncc([N+](=O)[O-])s3)nc21
→ 3.7 | 1.7
- O=C1C=Cc2ccccc2C1=Cc1c(O)[nH]c(=O)[nH]c1=O
→ -8.9 | -11.6
- COc1cc(COC2CN(C(=O)c3c4c(nn3C)CCCC4)CC(=O)N(C(C)C)C2)cc(OC)c1 (configuration not stated)
→ -5.4 | -11.5
- O=c1nc(SCc2ccccn2)c2c([nH]1)CCCC2
→ -4.6 | -6.4

Record cards, from the list above:
Results for C=CCn1c2ccccc2c2nnc(SCC(=O)Nc3ncc([N+](=O)[O-])s3)nc21 : NPYLR7 agonist = 3.7; NPYLR7 agonist max-min = 1.7
Results for CC(C(=O)Nc1ncccn1)N1CCCC(C)(c2ccccc2)C1 (configuration not stated) : NPYLR7 agonist = -6.7; NPYLR7 agonist max-min = -4.9

Other results
Results follow in this order: NPYLR7 agonist | NPYLR7 agonist max-min
- CSc1nnc(CNC(=O)C23CC4CC(CC(C4)C2)C3)n1Cc1ccccc1
→ -0.6 | -2.1
- Cn1c(N2CCOCC2)nc2cc(C(=O)NCC3(O)CCNC3)ccc21 (configuration not stated)
→ 3.2 | 0.3
- ClC1(Cl)CC1Cn1c(-c2cccs2)nc2ccccc21 (configuration not stated)
→ 20.3 | 22.8
- CC1(C(=O)NC2CCc3ccccc32)CCN1Cc1csc2ccccc12 (configuration not stated)
→ -0.7 | -3.3
- CN=C(NCc1cc(C)no1)N1CC(C)OC(C)C1 (configuration not stated)
→ 0.4 | -2.6
- CN1C(=O)C(CC(=O)NCC2=CCCCC2)N(C)C1=O (configuration not stated)
→ 24.3 | 16.6
- CC(=O)N1N=C(c2ccco2)OC1C(=O)N(CCC#N)CC1CCCO1 (configuration not stated)
→ 6.3 | 2.3
- COc1ccc(CCC(=O)Nc2c(C)nc3ccc(C)cn3c2=O)cc1
→ -2.4 | -1.8
- CC(=O)NC(CC(=O)Nc1cc(F)ccc1F)c1ccccc1Cl (configuration not stated)
→ 17.2 | 8.3
- CC1(C)CC(=O)C2C(=Nc3ccccc3NC2c2ccc(Cl)c(Cl)c2)C1 (configuration not stated)
→ -4.1 | -9.1
- COC(=O)c1sc(NC(=O)C(C)c2c(C)nn(C)c2C)cc1C (configuration not stated)
→ 7.2 | 6.1
- O=S(=O)(CC1CCCO1)c1nc2c(n1-c1ccccc1)CCCC2 (configuration not stated)
→ -2.3 | 6.7
- CN(C)c1ncccc1CNC(=O)C1(Cn2ccnc2)CC1
→ -2.8 | -3.1
- CC(C)C(=O)N1CCN(C(C)C(=O)Nc2cccc(Cl)c2)CC1 (configuration not stated)
→ 0.3 | 0.5
- CC(c1nc2ccccc2s1)N(C)CN1C(=O)NC2(CCCCCCC2)C1=O (configuration not stated)
→ 3.3 | 9.1

Results follow in this order: NPYLR7 agonist | NPYLR7 agonist max-min
- COc1ccc(CN(C)S(=O)(=O)N(C)C(C)C)cc1
→ -3.4 | 0.1
- CCNC(=O)N1CCC(NC(C)COc2ccc3ccc(=O)oc3c2)CC1 (configuration not stated)
→ 22.9 | 19.0
- O=C(c1c(F)cccc1Cl)N1CCC(n2nc(-c3ccccc3)cc2-c2ccccc2)CC1
→ 17.3 | 14.8
- O=C(Cn1nc2c(c1NC(=O)c1ccc(Cl)cc1)CSC2)NCc1ccccc1
→ -7.4 | -5.4
- c1ccc(OCCN2CCN(c3nc4nonc4nc3NC3CC3)CC2)cc1
→ 10.5 | 13.0
- Cn1c(N)c(C(=O)CN2CCN(C(=O)c3cccs3)CC2)c(=O)n(C)c1=O
→ 1.1 | -0.7
- Cc1cc(Cl)ccc1S(=O)(=O)NCc1ccnc(N(C)C)c1
→ 1.9 | -0.7
- O=C1CNC(=O)N1CC(O)COC(c1ccc(F)cc1)c1ccc(F)cc1 (configuration not stated)
→ 5.5 | 3.4
- O=c1n(Cc2ccc3ccccc3n2)nc(C2CCCNC2)n1-c1ccccc1 (configuration not stated)
→ 6.5 | 5.5
- COC(=O)CN1CCN(c2nccc(CCC(F)(F)F)n2)C(C)C1=O (configuration not stated)
→ 0.4 | 0.4
- COc1ccc(Cn2cnc3cnc(-c4ccccc4OC)cc32)cc1OC
→ 8.4 | -2.8
- NC(=O)CSc1ncccc1Nc1ccccn1
→ 9.2 | 2.8
- Cc1cc(=O)[nH]c(-n2ncc(C(=O)Nc3nnc(C)s3)c2C)n1
→ -0.8 | -0.8

This is a subset, so the mix of outcomes need not match the whole.
